# Source: PubChem (National Center for Advancing Translational Sciences (NCATS))
# Sfp PPTase inh – qHTS Assay for Inhibitors of Bacillus subtilis Sfp phosphopantetheinyl transferase (PPTase); Biochemical Sfp PPTase activity, qHTS; 310,000 compounds, 3.5% hits; Potency, µM, for the others: max response, negative = inhibition, usual class: inhibitors; 4'-phosphopantetheinyl transferase ffp (Bacillus subtilis), Q9F4F7; active means well fitted inhibition curve with a large enough effect; inconclusive means small, poorly fitted or top-dose-only effect, or another doubt; inactive means no such curve, though single readings can be large or run the other way;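 further: the enzyme is Sfp with the accession as filed and its product quenches rhodamine fluorescence; potency means the concentration at half of the fitted maximal effect; 0% = enzyme reaction without inhibitor and -100% = no enzyme wells; top concentration of the series not given in the record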
#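 Compounds were incubated with enzyme (final 15 nM) for 15 min at room temperature before substrate addition started the reaction. Fluorescence at 525 nm excitation, 598 nm emission was recorded immediately and after 30 minutes.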
# PINK1 modulator – A Quantitative High throughput Screen to Identify Chemical Modulators of PINK1 Expression | PINK1 immunofluorescence, high-content cytometry, 24 h | Potency, µM (doses to about 76.6 µM), without a hit: at the top dose activation (PINK1 increase), usual class: activators | 410,000 compounds, 0.2% hits | AID 624263, 2012; active = well fitted activation curve with a large enough effect; inconclusive = small, poorly fitted or top-dose-only effect; inactive = flat fitted curve, though single readings scatter; cell line not stated here;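 further: potency means the concentration at half of the fitted maximal effect; % of control where 0% means no effect; nearly all actives have a fitted effect of over 65% in size; a mitochondrial uncoupler was the plate control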
#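 Stable cell line treated 24 h with compounds at 5 concentrations (CCCP controls), then fixed and immunostained for PINK1 plus nuclear and cell stains; PINK1 immunofluorescence quantified by laser-scanning microplate cytometry.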
# TRPV1 potentiator – HTS Assay for Compounds that Act as Potentiators of the Vanilloid Receptor 1; Transient receptor potential cation channel subfamily V member 1 (Homo sapiens), Q8NER1; TRPV1-expressing cells, Fluo-8 calcium influx, capsaicin EC20 potentiation; host cell line not named in the record; control for the full effect not named in the record; potentiation, % at 8.33 µM; 320,000 compounds, 0.02% hits; AID 540277, 2011; active means potentiation above 80%; inconclusive means 30% to 80%; inactive means below 30%; further: 0% is about no effect
#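 TRPV1-expressing cells were cultured overnight at 35.5C and loaded with Fluo-8 calcium dye for 40 to 90 min at room temperature. After a 10 s baseline, compound was added and calcium influx was read kinetically for 3 min (ex 480/em 520 nm).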
# D2 potentiator – Beta-Arrestin HTS for Positive Allosteric Modulators of the Human D2 Dopamine Receptor: Potentiators. D(2) dopamine receptor (Homo sapiens), P14416. DiscoveRx D2 beta-arrestin cells, luminescence, 90 min; 100% = 57 uM dopamine signal. potentiation, % (no concentration beside the values). 360,000 compounds, 0.23% hits; active = potentiation of 50% or more; inconclusive = 30% to 50%; inactive = 30% or less;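 further: compound concentration not given in the record; tested on top of an EC20 dose of dopamine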
#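 PathHunter beta-arrestin assay in DiscoveRx D2 cells. Compounds were added with an EC20 of dopamine (50 nM final) for 90 min at 37 deg C. Luminescence was read 1 h after detection reagent, with 57 uM dopamine as the EC100 control.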
# Six1-Eya2 blk – qHTS Assay for Inhibitors of the Six1/Eya2 Interaction. Homeobox protein SIX1 (Homo sapiens) + Protein phosphatase EYA2 (Homo sapiens), …. AlphaScreen GST-Six1/His-Eya2 binding, biochemical; hits give low values; control for the full effect not named in the record. activity change, % (test concentration not listed). 360,000 compounds, 0.56% hits. AID 651725, 2012; in the data active = activity change below about -65%; inconclusive = about -30% to -65%; inactive = above about -30%; further: on the % scale 0 is the no-effect control and ±100 the full control effect
# Target sequence (O00167 whole entry, looked up): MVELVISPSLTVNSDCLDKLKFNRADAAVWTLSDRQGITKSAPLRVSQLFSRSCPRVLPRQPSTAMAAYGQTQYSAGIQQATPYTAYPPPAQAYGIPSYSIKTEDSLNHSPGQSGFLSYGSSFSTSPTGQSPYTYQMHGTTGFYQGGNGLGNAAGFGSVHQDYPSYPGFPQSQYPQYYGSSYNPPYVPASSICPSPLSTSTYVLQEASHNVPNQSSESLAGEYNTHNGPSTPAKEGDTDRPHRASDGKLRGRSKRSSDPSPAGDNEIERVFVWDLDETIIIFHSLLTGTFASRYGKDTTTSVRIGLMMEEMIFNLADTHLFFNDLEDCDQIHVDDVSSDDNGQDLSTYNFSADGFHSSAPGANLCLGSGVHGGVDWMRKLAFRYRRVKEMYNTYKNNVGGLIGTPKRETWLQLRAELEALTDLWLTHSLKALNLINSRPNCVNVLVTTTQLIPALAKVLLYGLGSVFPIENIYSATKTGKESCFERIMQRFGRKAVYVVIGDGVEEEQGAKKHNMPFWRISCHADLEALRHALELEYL
# Target sequence (Q15475 whole entry, looked up): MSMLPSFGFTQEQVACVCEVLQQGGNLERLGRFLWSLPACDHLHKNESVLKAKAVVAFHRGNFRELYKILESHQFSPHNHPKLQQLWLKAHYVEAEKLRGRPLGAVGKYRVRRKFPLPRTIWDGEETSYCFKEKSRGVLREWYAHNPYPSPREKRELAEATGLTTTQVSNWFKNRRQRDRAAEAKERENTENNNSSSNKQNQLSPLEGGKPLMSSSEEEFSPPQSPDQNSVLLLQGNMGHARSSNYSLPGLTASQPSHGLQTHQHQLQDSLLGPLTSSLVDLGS
#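 Homogeneous AlphaScreen proximity assay pairing GST-Six1 with His-tagged Eya2 (added as 5X mix: 250 nM and 500 nM) in 50 mM Tris pH 8.0, 300 mM NaCl, 1 mM TCEP. Glutathione donor and nickel acceptor beads; 1 h, 37 °C, dark.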
# CtBP-E1A inh – qHTS Assay for Inhibitors of the CtBP/E1A Interaction; AID 651724, 2012; 340,000 compounds, 0.49% hits; CtBP / adenovirus E1A interaction (AlphaScreen); AlphaScreen GST-E1A/His-CtBP binding, 1536-well; hits give low values; control for the full effect not named in the record; activity change, % (concentration not given with the values); in the data active means activity change below about -65%; inconclusive means about -30% to -65%; inactive means above about -30%; further: on the % scale 0 is the no-effect control and ±100 the full control effect
#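 Homogeneous bead-based format: GST-tagged E1A captured on glutathione donor beads, His-tagged CtBP on nickel acceptor beads; compounds precede bead addition by 2 h at 37 °C.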
# D2 agonist – Beta-Arrestin HTS for Positive Allosteric Modulators of the Human D2 Dopamine Receptor: Agonists; D(2) dopamine receptor (Homo sapiens), P14416; DiscoveRx PathHunter D2 beta-arrestin, luminescence, 90 min; 100% = 57 uM dopamine signal; activation, % (test concentration not listed); 360,000 compounds, 0.084% hits; AID 624465, 2012; in the data active = activation above about 40%; inconclusive = about 15% to 40%; inactive = below about 15%; further: compound concentration not given in the record; the text of the record calls up to 30% inactive
#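 DiscoveRx PathHunter D2 beta-arrestin cells (2,100/well) attached overnight, then compound-stimulated 90 min at 37 C in HBSS/10 mM HEPES/0.1% Tween-20 buffer; beta-galactosidase complementation read by luminescence after 1 h at ambient temperature. Dopamine 57 uM final (EC100) as control.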
# The depositor's hits bear a star; u = inconclusive; x = not tested or not shown; & = joins results of further samples; [ ] = dose if it differs, or a comment.
# Second line of a record – Sfp PPTase inh	PINK1 modulator	TRPV1 potentiator	D2 potentiator	Six1-Eya2 blk	CtBP-E1A inh	D2 agonist
O=C(c1cccc(S(=O)(=O)NCc2ccccc2)c1)N1CCN(c2ccccc2)CC1
 : x	1.7%	x	-2.4	-3.9	5.7	-1.4
CC(C(=O)O)N1C(=O)CSC1=S (stereo not given)
 : -27.4%	-0.7%	22.6	7.8	4.9	1.2	0.8
O=C1NC(c2ccccc2)=NC1(NS(=O)(=O)c1ccc(Cl)cc1)C(F)(F)F (stereo not given)
 : 9.5%	2.0%	11.3	2.9	4.9	8.0	-2.0
COc1cccc(CN(C)C(=S)Nc2ccc(C)c(C)c2)c1
 : 8.2%	4.3%	-10.9	-7.5	2.9	-6.6	-2.9
CCC(Sc1nc2ncccc2[nH]1)C(=O)NC1CCCC1 (stereo not given)
 : -2.2%	0.3%	u	-3.1	0.5	6.2	1.8
CCNC(=O)/C(=C\C=C\c1ccccc1)NC(=O)c1ccc(Br)o1
 : 19.3%	9.0%	-4.2	-1.9	2.1	0.8	-1.8
COc1cc2cnc(-c3ccccc3F)cc2cc1OC
 : x	-0.2%	x	-1.0	-18.2	-15.1	2.2
CCCCCCCCCCS(=O)(=O)N/N=C/c1ccccc1OC
 : 11.9%	8.4%	-16.8	-18.4	18.3	18.8	-2.5
Cc1cc(C)cc(NC(=O)CSc2nnc(CNC(=O)c3ccco3)n2C)c1
 : x	0.0%	-4.2	-12.9	-2.8	-2.6	-2.8
CCOC(=O)NC(NC(=S)Nc1ccc(OC)cc1)C(Cl)(Cl)Cl (stereo not given)
 : 12.4%	2.8%	6.1	-6.8	-3.1	-10.2	-3.2
Nc1ccc(C#Cc2ccc3sc4ccccc4c(=O)c3c2)cc1
 : x	2.4%	x	-8.8	2.9	7.5	-0.6
COC(=O)c1ccccc1NC(=O)c1ccccc1SC
 : u	-0.7%	2.3	-4.1	7.1	2.8	-1.7
CCOc1cc2[nH]c(=O)n(CC3CCC(C(=O)NCCC(C)C)CC3)c(=O)c2cc1OCC (stereo not given)
 : x	1.5%	x	-2.8	-4.5	4.9	-6.6
COc1cccc(N2C(=O)CC(N3CCc4ccccc43)C2=O)c1 (stereo not given)
 : 1.5%	-1.0%	-22.7	0.8	-4.2	-0.9	-0.3
CCCCn1c(=O)[nH]c(=O)c2c1nc(-c1ccccn1)n2CC
 : 0.2%	1.5%	-15.8	-0.9	-11.6	-16.0	6.6
COc1ccc([C@H]2C=C3CN(C(=O)OC(C)(C)C)S(=O)(=O)[C@H]3C[C@H]2OC(=O)c2ccc(C(F)(F)F)cc2)cc1
 : 15.9%	0.5%	-7.9	-8.7	-0.4	x	-1.1
O=c1cc(/C=C/c2c(F)cccc2Cl)[nH]c2ccccc12
 : 3.9%	12.5%	-9.7	-18.4	10.7	-0.5	-5.4
Nc1nonc1C(=O)NCCNc1ccc([N+](=O)[O-])cn1
 : -14.9%	-1.4%	28.7	2.0	-1.0	11.7	-2.5
COc1ccc(N(CC(=O)Nc2ccccc2SC)S(C)(=O)=O)cc1OC
 : 4.6%	x	-7.8	-13.1	-0.4	-2.9	0.3
c1ccc2cc(C3OCC4(CCCC4)CO3)ccc2c1
 : x	u	x	-10.7	8.5	0.0	-3.0
CC(C)(C)c1ccc(C(=O)Nc2ccc(CN3CCS(=O)(=O)CC3)cc2)cc1
 : 6.7%	0.8%	-21.7	-1.6	24.8	2.2	1.2
Cc1sc(NC(=O)COc2ccccc2)c(C#N)c1-c1ccccc1
 : 6.9%	10.8%	0.8	-16.1	3.4	0.0	-3.4
O=C(CN(Cc1ccccc1)S(=O)(=O)c1ccccc1)N/N=C/c1ccccc1C(=O)O
 : 11.4%	2.7%	19.3	-1.5	-0.1	-29.1	2.3
COc1ccc(CC(=O)NC(=S)NNC(=O)COc2c(C)cccc2C)cc1
 : 2.3%	9.2%	-34.4	-11.8	-0.1	1.4	-3.4
O=C1NN=C(c2ccc(Cl)cc2)CC1c1cccc(Cl)c1 (stereo not given)
 : -5.2%	-1.0%	0.7	-0.8	12.6	0.0	-1.2
CCOC(=O)N1CCC(NC(=O)Cn2cc3c(n2)CCC(C)C3)CC1 (stereo not given)
 : 15.0%	0.7%	7.1	-0.6	-2.8	5.4	-1.7
CN(C(=O)c1cccc(NC(=O)Cc2ccc(NC(=O)C3CCN(C(=O)C4CCCC4)CC3)cc2)c1)C1CCC1
 : x	1.9%	x	5.2	-0.6	-26.8	1.6
O=C(CSc1nnc(Nc2ccccc2)s1)NC1CCS(=O)(=O)C1 (stereo not given)
 : x	-1.0%	x	-5.3	-1.7	2.4	-0.8
CCN1c2ccccc2N(C)C1(C)c1ccccc1 (stereo not given)
 : 31.6µM*	u	16.4	u	u	-25.6	u
O=C(CSc1ccsc1[N+](=O)[O-])NCc1ccco1
 : -5.8%	0.7%	18.5	-10.8	5.3	x	-2.0
COC(=O)c1cccc(C23CC4(C2)[C@H](CN(C)[C@@H]4c2ccccc2)C3c2ccccc2)c1 (stereo not given in full)
 : 14.4%&-10.4%	20.9%	4.1	-6.7	-20.1	-21.3	-0.8
CCOC(=O)C[C@H]1c2ccccc2S(=O)(=O)N1c1ccccc1
 : x	0.0%	x	-11.2	-1.4	x	-2.4
S=C(NCc1ccc(Cl)cc1)NCc1ccco1
 : -3.1%	0.7%	0.9	-12.8	-6.6	-5.5	-2.8
Fc1cccc(Nc2nc3ccccc3n3cnnc23)c1
 : 11.8%	0.7%	-8.3	-5.8	-16.7	-4.2	-5.4
CC1CN(C(=O)c2ccc(COc3ccccc3Br)o2)CC(C)O1 (stereo not given)
 : -3.5%	-0.8%	-4.9	-4.9	-2.0	5.8	10.6
CC(O/N=C\c1ccccc1O)C(=O)Nc1ccccc1C(=O)N1CCOCC1 (stereo not given)
 : 0.6%	2.9%	u	-12.7	-4.0	7.5	-1.0
Cc1cc(NC(=O)CCC(=O)N(Cc2ccco2)C(C(=O)NC2CCCCC2)c2cccs2)no1 (stereo not given)
 : 18.5%	-1.4%	-0.3	-1.4	-6.7	0.8	-4.1
COc1ccc(NC(=O)C2CCCN2S(=O)(=O)c2ccc(F)cc2)cc1 (stereo not given)
 : 11.1%	-3.5%	x	-7.0	1.5	-21.0	-1.3
c1cc2c3c(cccc3c1)C(N1CCOCC1)=N2
 : 0.0%	-1.1%	4.5	-5.7	3.7	-3.7	-3.5
COc1ccc(S(=O)(=O)N2CCOCC2)cc1NC(=O)CSc1ccccc1
 : 2.9%	2.6%	-15.2	20.2	-3.5	8.3	-1.5
COc1ccc(CN2CCNC(=O)C2CC(=O)N2CCc3ccccc3C2)c(OC)c1 (stereo not given)
 : 5.6%	0.2%	-7.9	-8.2	-11.3	0.5	-3.9
CCc1ccc(NC(=O)C(C)OC(=O)/C=C/c2cccc([N+](=O)[O-])c2)cc1 (stereo not given)
 : -5.0%	-2.0%	5.2	-6.0	3.3	-19.1	-4.6
O=C(O)CCNS(=O)(=O)c1ccc(Oc2ccccc2)cc1
 : 1.6%	7.5%[38.3 µM]	2.0	-8.5	1.6	-0.9	-0.9
COc1ccccc1C(CNC(=O)C(CCSC)NC(=O)c1ccccc1Cl)N1CCCC1 (stereo not given)
 : x	0.9%	x	-1.9	-2.0	6.0	-0.1
CCOC(=O)CCC(NC(=O)CCCCCCCC(=O)NC(CCC(=O)OCC)C(=O)OCC)C(=O)OCC (stereo not given)
 : 6.7%	-1.3%	6.2	9.8	5.5	12.4	-0.9
CC(C)CNc1ncnc2c1ncn2[C@H]1CN(Cc2ccc(F)cc2)C[C@@H](CO)O1
 : x	0.1%	x	-11.0	9.2	0.0	-3.1
CCOC(=O)C(C)NC(=O)CCc1nnc2ccc(N3CCC(C)CC3)nn12 (stereo not given)
 : -3.8%	2.7%	6.8	-6.8	0.1	x	12.1
O=C(CSC(=S)N1CCOCC1)Nc1ccc(S(=O)(=O)Nc2ncccn2)cc1
 : 9.9%	-1.1%	3.3	-7.5	-5.2	-18.2	-4.1
CC(C)(C)NC(=O)CSc1nnc(Cc2ccccc2)n1CC1CCCO1 (stereo not given)
 : 11.8%	-0.5%	5.0	-9.5	8.4	-0.5	4.0
COc1ccc(NC(=O)N2CCN(C(=O)Nc3ccc(OC)cc3)CC2)cc1
 : 14.0%	4.1%	2.5	-3.1	15.7	0.0	-4.2

# Molecules from the list above that have an NH in an aromatic ring, in the order listed:
# Second line of a record – Sfp PPTase inh	PINK1 modulator	TRPV1 potentiator	D2 potentiator	Six1-Eya2 blk	CtBP-E1A inh	D2 agonist
CCC(Sc1nc2ncccc2[nH]1)C(=O)NC1CCCC1 (stereo not given)
 : -2.2%	0.3%	u	-3.1	0.5	6.2	1.8
CCOc1cc2[nH]c(=O)n(CC3CCC(C(=O)NCCC(C)C)CC3)c(=O)c2cc1OCC (stereo not given)
 : x	1.5%	x	-2.8	-4.5	4.9	-6.6
CCCCn1c(=O)[nH]c(=O)c2c1nc(-c1ccccn1)n2CC
 : 0.2%	1.5%	-15.8	-0.9	-11.6	-16.0	6.6
O=c1cc(/C=C/c2c(F)cccc2Cl)[nH]c2ccccc12
 : 3.9%	12.5%	-9.7	-18.4	10.7	-0.5	-5.4

# More compounds
# Second line of a record – Sfp PPTase inh	PINK1 modulator	TRPV1 potentiator	D2 potentiator	Six1-Eya2 blk	CtBP-E1A inh	D2 agonist
CNC(=S)N(CCc1c(C)[nH]c2ccc(C)cc12)Cc1cccnc1
 : 4.6%	0.4%	-6.4	1.4	-16.0	0.3	3.5
CCCN(CCC)c1nc(Cl)nc(NCc2ccco2)n1
 : u	0.4%	13.5	-28.0	0.6	-8.6	-2.8
CCNC(=O)COC(=O)c1cc(S(=O)(=O)N2CCCc3ccccc32)ccc1Cl
 : -4.4%	6.0%	26.0	0.7	5.2	2.2	0.5
CCN(C(=O)C1CSC2(C)CCC(=O)N12)c1nc2c(C)cccc2s1 (stereo not given)
 : x	u	4.5	8.7	0.7	1.1	4.1
